KCNQ2 inh = KCNQ2 potassium channel inhibitors, primary screen, cell-based, CHO-K1, FluxOR thallium flux, B-score (AID 2156); 20 min; active compounds read low; only compounds with negative scores are shown here; some inactives read as strong as hits; actives 1.1% (n = 310,000); O88943; B-score at 10 µM;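 active means fluorescence ratio B-score at most minus 3 library SDs, with starting brightness B-score within 2 library SDs, cut at about -5.5 in these data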
Target sequence (O88943 whole entry, looked up): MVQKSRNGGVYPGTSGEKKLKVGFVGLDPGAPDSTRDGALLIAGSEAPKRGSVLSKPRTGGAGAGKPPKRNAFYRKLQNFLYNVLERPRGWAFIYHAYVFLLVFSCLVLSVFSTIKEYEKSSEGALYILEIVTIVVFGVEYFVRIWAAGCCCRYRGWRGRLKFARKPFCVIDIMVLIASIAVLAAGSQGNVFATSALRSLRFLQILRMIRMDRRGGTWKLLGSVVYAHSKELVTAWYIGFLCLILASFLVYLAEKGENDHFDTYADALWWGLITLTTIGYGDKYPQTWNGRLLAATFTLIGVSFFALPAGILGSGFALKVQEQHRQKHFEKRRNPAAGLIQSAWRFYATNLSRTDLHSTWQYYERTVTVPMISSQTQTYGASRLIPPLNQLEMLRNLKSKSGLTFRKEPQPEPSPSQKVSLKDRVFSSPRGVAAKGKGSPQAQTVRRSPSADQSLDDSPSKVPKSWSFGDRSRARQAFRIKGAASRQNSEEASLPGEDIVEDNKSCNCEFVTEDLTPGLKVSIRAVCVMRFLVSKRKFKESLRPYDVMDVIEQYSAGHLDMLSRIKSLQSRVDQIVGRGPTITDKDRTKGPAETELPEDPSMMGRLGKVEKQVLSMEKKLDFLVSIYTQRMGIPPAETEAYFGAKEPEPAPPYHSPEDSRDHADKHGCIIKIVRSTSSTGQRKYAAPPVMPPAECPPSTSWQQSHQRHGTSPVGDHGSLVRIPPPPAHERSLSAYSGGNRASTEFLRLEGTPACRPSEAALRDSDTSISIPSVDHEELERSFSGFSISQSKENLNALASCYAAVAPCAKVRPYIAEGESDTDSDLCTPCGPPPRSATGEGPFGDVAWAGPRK
KCNQ2 inh baseline = second read-out of KCNQ2 inh, no call of its own (marks repeat the call); B-score; measured here: initial fluorescence intensity artifact check;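 brightness before thallium and not channel activity; 0 = typical well and far values either way flag optical interference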
Starred values were filed as active, the others as inactive; i = inactive.

canonical_smiles | KCNQ2 inh | KCNQ2 inh baseline
Cc1ccc(OCCn2ncc3ccccc3c2=O)c(C)c1 | i | 0.38
Brc1nc(-c2ccccc2)nc(-c2ccccc2)c1Br | i | 0.2
Cc1cc(CN2CCCCC2C(=O)Nc2ccc(Oc3cccnc3)cc2)oc1C (configuration not stated) | i | -0.67
CC(=O)c1cc2c(C)cc(=O)oc2cc1O | i | 0.41
COc1ccccc1C(C)NCC(=O)NCc1ccc(C)cc1 (configuration not stated) | i | -0.76
O=C(OCc1nc(-c2ccccc2)oc1COC(=O)c1ccco1)c1ccco1 | i | -1.5
N#Cc1c(NCCO)ccc([N+](=O)[O-])c1NCCO | i | -1.9
CC(C)OC(=O)c1ccc(Cn2nnc3ccccc3c2=O)cc1 | i | -1.7
COc1ccc(Oc2ccc(/C=C/C(=O)c3cccc(OC)c3)cc2[N+](=O)[O-])cc1 | i | 0.62
COc1ccc(N(CC(=O)N/N=C/c2cc(OC)ccc2OC)S(=O)(=O)c2ccccc2)cc1 | i | 1.3
Cc1c(N2C(=O)c3ccccc3C2(O)c2ccccc2)c(=O)n(-c2ccccc2)n1C (configuration not stated) | i | 0.64
Cc1cccc(C)c1NC(=O)CN(C)C(=O)c1ccccc1C(=O)N(C)Cc1ccccc1 | -6.6* | -0.31*
Cc1ccc(C(=O)Nc2ccc(S(=O)(=O)Nc3cnc4ccccc4n3)cc2)cc1 | i | -0.74
CCc1nccn1CCC(=O)N1CCc2c([nH]c3ccccc23)C1CC(C)C (configuration not stated) | i | -1.6
CC(=O)c1ccc(S(=O)(=O)N2CCC(Oc3ccc(-n4cnnn4)cc3)CC2)cc1 | i | -0.11
Cc1cc(C)c2c(c1)cc(C)c1nnc(SCC(=O)N3CCCc4ccccc43)n12 | i | 0.36
COC(C(=O)Nc1ccnn1C1CCN(Cc2nccs2)CC1)c1ccccc1 (configuration not stated) | i | 1.3
COc1ccc(S(=O)(=O)N2CCCC2CNC(=O)C(=O)Nc2ccc(F)cc2)cc1 (configuration not stated) | i | -0.65
C=CCOC(=O)C1=C[C@H](C2CCCCC2)[C@@H](CCCO)[C@H](OCC)O1 | i | -2.4
OCC(O)[C@@H](O[C@H]1O[C@H](CO)[C@@H](O)[C@H](O)[C@H]1O)[C@H](O)[C@@H](O)CO (some centres not stated) | i | -0.63
Cc1ccc2nc(NC(=O)CSc3nc(=O)n(CCN(C)C)c4c3CCCC4)sc2c1 | i | -0.17
CN(C)CC[C@@H](c1ccc(Br)cc1)c1ccccn1 | i | -0.28
CN(C)S(=O)(=O)c1ccc(Cl)c(NC(=O)CN2C(=O)NC3(CCCC3)C2=O)c1 | i | -0.97
COc1ccc(CCN2CC34C=CC(O3)C(C(=O)NCc3ccccc3)C4C2=O)cc1OC (configuration not stated) | i | 0.07
Cc1ccc(O)c(C(=O)/C=C/c2ccc3c(c2)OCCCO3)c1 | i | -2.2

Brought forward from above: 6 compounds, followed by the next part.
canonical_smiles | KCNQ2 inh | KCNQ2 inh baseline
OCC(O)[C@@H](O[C@H]1O[C@H](CO)[C@@H](O)[C@H](O)[C@H]1O)[C@H](O)[C@@H](O)CO (some centres not stated) | i | -0.63
Cc1ccc2nc(NC(=O)CSc3nc(=O)n(CCN(C)C)c4c3CCCC4)sc2c1 | i | -0.17
CN(C)CC[C@@H](c1ccc(Br)cc1)c1ccccn1 | i | -0.28
CN(C)S(=O)(=O)c1ccc(Cl)c(NC(=O)CN2C(=O)NC3(CCCC3)C2=O)c1 | i | -0.97
COc1ccc(CCN2CC34C=CC(O3)C(C(=O)NCc3ccccc3)C4C2=O)cc1OC (configuration not stated) | i | 0.07
Cc1ccc(O)c(C(=O)/C=C/c2ccc3c(c2)OCCCO3)c1 | i | -2.2
CCCCCc1c(O)c2ccccc2[nH]c1=O | i | 1.9
COc1cc(/C=N/Nc2ccc3ccccc3c2)ccc1OC(=O)c1ccco1 | i | -0.15
Cc1ccc(CNC(=O)c2ccc(CN3CCOCC3)cc2)cc1 | i | -1
FC(F)(F)c1cc(CCN2CCNC[C@H]2Cc2cccc3ccccc23)cc(C(F)(F)F)c1 | i | 0.06
CC(NC(=O)CSc1nnc(-c2cccnc2)n1N)c1ccccc1 (configuration not stated) | i | -0.91
Cc1cccc(NC(=O)c2ccc(NCC3CCCO3)c([N+](=O)[O-])c2)n1 (configuration not stated) | i | 0.24
CCOC(=O)c1c(NC(N)=O)nc2n1CCC2 | i | -1
Cc1cc(C)c(OCC(=O)Nc2ccccn2)c([N+](=O)[O-])c1 | i | -1.5
C=CCn1c(SC(CCO)C(=O)NCc2ccco2)nc2sc3c(c2c1=O)CCC3 (configuration not stated) | i | -0.54
COc1cc(/C=N/N=C2/NC(=O)C(Cc3ccccc3)S2)ccc1O (configuration not stated) | i | 3.7
CC(=O)Cn1ncc(N2CCCCC2)c(Cl)c1=O | i | 2.2
CC1CN(C(=O)c2cc3c(=O)n4ccccc4nc3n2C)CC(C)O1 (configuration not stated) | i | 0.29
CC(C)N(C(=O)Cn1c(-c2ccccc2Cl)nc2ccccc21)c1ccccc1 | i | 2.9
O=c1[nH]n(-c2ccccc2Cl)c(=O)c2ccccc12 | i | -1.8
COCCC(=O)N1CCC(Oc2ccc(C(=O)NCCC3=CCCCC3)cc2)CC1 | i | 0.14
CCSC1=N/C(=C\c2ccc(-c3ccccc3[N+](=O)[O-])o2)C(=O)S1 | i | 0.17
Cc1ccc(OCn2c(=O)sc3ccccc32)cc1 | i | 0.16
O=C(CN(Cc1ccccc1)C(=O)c1csnn1)NCc1ccc2c(c1)OCO2 | i | 2.1
CC1(c2ccc(OC(F)F)cc2)NC(=O)N(CC(=O)Nc2ccc3[nH]c(=O)[nH]c3c2)C1=O (configuration not stated) | i | 0.19
CCOC(=O)N/N=C(\C)c1ccc(Br)cc1 | i | -1.3
CCCN(CCC)S(=O)(=O)c1cc2c3c(c1)CCN3C(=O)CC2 | i | -0.3
O=C(NCC1CCCO1)c1cn(-c2ccccc2)nc1-c1ccccc1 (configuration not stated) | i | -0.04
O=C1c2ccccc2NC2(CCCC2)N1O | i | 1
CC(CC12CC3CC(CC(C3)C1)C2)NCc1ccccc1O (configuration not stated) | i | -0.99
Oc1ccccc1CN1CCC(C(O)(c2ccccc2)c2ccccc2)CC1 | i | 0.05
COc1ccccc1Nc1cc(C)nc2c(C)ccc([N+](=O)[O-])c12 | i | -2.5
COc1cc(CNCc2ccccn2)ccc1OCc1ccc(Cl)cc1Cl | i | -0.62
Cc1nn(CC(=O)c2cccc(Cl)c2)c(C)c1[N+](=O)[O-] | i | 0.92
COc1ccc(OC)c(/C=N/NC(=O)c2ccncc2)c1 | i | 2.1
CC1(c2nnc(-c3ccc(Cl)cc3)o2)CC(c2cccnc2)=NO1 (configuration not stated) | i | 0.53
CC(C)c1nnc(NC(=O)c2cccs2)s1 | i | 1.4
Cc1cc(Cl)ccc1OCC(=O)OCC(=O)N(CC(C)C)c1c(N)n(Cc2ccccc2)c(=O)[nH]c1=O | i | -0.24
Cc1ccc(CNC(=O)C2CC(=O)N(c3ccc(OCC(=O)N4CCCC4)cc3)C2)cc1 (configuration not stated) | i | -0.03
Cc1nc2c(-c3ccc(F)cc3)c(C)nn2c(C)c1CCC(=O)Nc1ccccc1 | i | -0.52
O=C(Nc1nc(-c2ccccn2)cs1)c1cc2ccccc2o1 | i | 0.12
Cc1nc([N+](=O)[O-])c(Br)n1Cc1ccccc1 | i | -1.2
O=c1oc(/C=C/c2ccccc2)nc2sc3c(c12)CCC3 | i | 0.56
CC(C(=O)NCC1CCCCC1)N1CCc2ccccc2C1 (configuration not stated) | i | -1
Cc1ccc(OCC(=O)Nc2cccc(-c3nnc(-c4ccccc4)o3)c2)cc1 | i | -1
Cc1noc(C)c1COC(=O)C1COc2ccccc2O1 (configuration not stated) | i | 2.4
CCOC(=O)/C(C#N)=C\c1c(C)cc(C)c(COC(C)=O)c1C | i | -0.44
COc1cc(/C=N/NC(=O)CCC(=O)Nc2ccc(F)cc2)ccc1O | i | 2
Cc1ccc(C(=O)NC2CCCCCCC2)c(Cl)c1 | i | 2.6
O=C1C2C3c4ccccc4C(c4ccccc43)C2C(=O)N1CN1CCOCC1 (configuration not stated) | i | 0.11
O=C(COc1ccc(Cl)cc1Cl)N1CCCCCC1 | i | -2.5
O=C(c1ccc(NS(=O)(=O)c2ccc(F)cc2)cc1)N1CCCCCC1 | i | -1.2
N#Cc1cc2c(nc1SCc1cccnc1)CCCCC2 | i | -1.2
CCCNC(=O)NC1CCCc2ccccc21 (configuration not stated) | i | 1.9
Cc1cc[n+](Cc2ccc([N+](=O)[O-])cc2)cc1 | i | 2.3
Cc1nc(N)nc(COc2ccccc2)n1 | i | 0.2

An excerpt from the list above, for reference:
canonical_smiles | KCNQ2 inh | KCNQ2 inh baseline
Cc1ccc(CNC(=O)C2CC(=O)N(c3ccc(OCC(=O)N4CCCC4)cc3)C2)cc1 (configuration not stated) | i | -0.03
Cc1nc2c(-c3ccc(F)cc3)c(C)nn2c(C)c1CCC(=O)Nc1ccccc1 | i | -0.52
O=C(Nc1nc(-c2ccccn2)cs1)c1cc2ccccc2o1 | i | 0.12

Remaining list, next part:
canonical_smiles | KCNQ2 inh | KCNQ2 inh baseline
COc1ccc(S(=O)(=O)N/N=C\c2ccccc2F)cc1 | i | -0.05
O=C1NC2(CCCC2)C(=O)N1CCS(=O)(=O)Oc1ccccc1 | i | -0.17
COCCCn1c(C)nnc1-c1cnn(-c2ccccc2)c1N | i | -0.68
Cc1cc(C(=O)CSc2nc3ccccc3c(=O)n2C)c(C)n1Cc1ccc2c(c1)OCO2 | i | -0.78
CC(=O)NS(=O)(=O)c1ccc(NC(=O)CCC2CCCC2)cc1 | i | 1.2
Cc1cc([N+](=O)[O-])ccc1NC(=O)C(C)NC1CCCCC1 (configuration not stated) | i | -0.5
O=C(Oc1ccc(N(Cc2cccs2)C2=NS(=O)(=O)c3ccccc32)cc1)c1ccc(Cl)cc1 | i | 0.11
COc1ccc(C2c3ccc(O)cc3Oc3ncn(Cc4ccccc4)c(=N)c32)cc1OC (configuration not stated) | i | -0.19
CC(=O)c1c(C(C)=O)c(C)n(-c2nc(-c3ccc(Br)cc3)c(C)s2)c1C | i | -0.05
CCOC(=O)C(NC(=O)CCl)(Nc1sc(C)c(CC)c1C#N)C(F)(F)F (configuration not stated) | i | -1.1
COc1cc2c(cc1OC)CN(c1nc(CN3CCOCC3)nc3sc4c(c13)CCC(C)C4)CC2 (configuration not stated) | i | -0.01
Cc1cccc(-c2oc3ccccc3c2C#CCCO)c1 | i | -0.34
C=CCOC(=O)C1=C(C)NC(SCC(=O)Nc2nccs2)=C(C#N)C1c1cccs1 (configuration not stated) | i | -0.48
CCn1nc(NS(=O)(=O)c2ccc(C)cc2)c2cc3ccccc3nc21 | i | 0.43
CCOC(=O)c1c(C)c(C(=O)NCCc2ccc(S(N)(=O)=O)cc2)c(C)n1CC | i | -0.79
Cc1ccc(NC(=O)N2CCCCC2)cc1NC(=O)N1CCCCC1 | i | 0.03
CCN(CC)CCNC(=O)CCCCn1c(=S)[nH]c2c([nH]c3ccc(OC)cc32)c1=O | i | -0.79
CCn1cc(C(=O)NCCO)c(=O)c2cc(F)c(N3CCN(C)CC3)cc21 | i | 0.42
O=C(CSCc1cccc(F)c1)NCc1ccccc1 | i | 0.23
CCCn1c(C)cc(C(=O)CN2C(=O)c3ccccc3C2=O)c1C | i | -0.21
COc1ccc(CNC(=O)Cn2c(=O)n(CC(=O)N3CCCCC3)c(=O)c3sccc32)cc1 | i | 1.7
O=C(CSc1ncn[nH]1)c1cc2ccccc2o1 | i | -2.1
CC(=O)Nc1ccc(NC(=O)Cc2ccc(F)cc2)cc1 | i | 1.5
CCN(CC)S(=O)(=O)c1ccc(N2CCOCC2)c(NC(=O)c2ccc(F)cc2)c1 | i | 1.9
COc1ccc(C)cc1NC(=S)N1CCOCC1 | i | -0.29

Additional results follow.
Screens in order: KCNQ2 inh	KCNQ2 inh baseline
> N#C/C(=C/c1ccc(Sc2nc3ccccc3[nH]2)o1)c1cccc(Br)c1
 : i	2.3
> Cc1ccc(Cn2ccc(NC(=O)c3cc(-c4ccc5c(c4)OCO5)on3)n2)cc1
 : i	-1.2
> COc1ccc(/C=N/n2cnnc2SCc2ccccc2)cc1
 : i	0.19
> CCCCOc1ccc(CN(CCO)CCO)cc1[N+](=O)[O-]
 : i	-0.1
> COc1cccc(CN(C)Cc2c(O)ccc3ccccc23)c1
 : i	1.3
> Cc1csc2c(=O)sc(NC(=O)c3ccc(F)cc3)nc12
 : i	-0.95
> Cc1cc(OCC(=O)N2CCOCC2)cc2oc(=O)c3ccccc3c12
 : i	0.57
> O=C(O)CSc1nnc(Cc2cccc3ccccc23)n1-c1cc(C(F)(F)F)cc(C(F)(F)F)c1
 : i	0.07
> CC(C)c1nnc(-c2ccc(Cl)cc2)c(N(C)C)n1
 : i	0.06
> CC(CNC(=O)COc1ccccc1)OC(=O)Nc1cccc(Cl)c1 (configuration not stated)
 : i	0.67
> CCOc1cc(/C=C2/NC(=O)N(CC(=O)OC)C2=O)ccc1OC
 : i	-0.58
> Cc1c(C)c2ccc(OCC(=O)NCCN3CCOCC3)cc2oc1=O
 : i	1
> CCCCCc1cc(=O)oc2c(C(CCN(CC)CC)c3cc(OC)c(OC)c(OC)c3)c(OC)cc(OC)c12 (configuration not stated)
 : i	0.6
> CCOC(=O)C(C)Sc1nc(-c2ccccc2)nc2ccc(F)cc12 (configuration not stated)
 : i	-0.02
> CCOc1ccc(S(=O)(=O)N2CCCCC2)c(C)c1C
 : i	-0.18
> COC(=O)C(CC(=O)c1ccc(Cl)cc1)c1ccc(C(C)C)cc1 (configuration not stated)
 : -5.9*	-0.5*
> Cc1cnc(NC(=O)CSc2ccccc2)s1
 : i	1.1
> Cc1ccc(OCC(=O)c2ccc(Cl)s2)c([N+](=O)[O-])n1
 : i	-2.7
> COc1ccc(CNC(=O)N2CCc3ccccc3C2)cc1Cl
 : i	0.28
> CCNC(=O)COC(=O)c1cc(-c2ccc(OC)cc2)nc2ccccc12
 : i	-1.4

From PubChem BioAssay

This is a subset; count on the stated rates, not on these rows.
